D2 potentiator: human D2 receptor positive allosteric modulation; P14416; DiscoveRx D2 beta-arrestin cells, luminescence, 90 min; 100% = 57 uM dopamine signal; potentiation, % (no concentration beside the values); 360,000 compounds, 0.23% hits; AID 624464; active = potentiation of 50% or more; inconclusive = 30% to 50%; inactive = 30% or less;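 also: compound concentration not given in the record; tested on top of an EC20 dose of dopamine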
Target sequence (P14416 whole entry, looked up): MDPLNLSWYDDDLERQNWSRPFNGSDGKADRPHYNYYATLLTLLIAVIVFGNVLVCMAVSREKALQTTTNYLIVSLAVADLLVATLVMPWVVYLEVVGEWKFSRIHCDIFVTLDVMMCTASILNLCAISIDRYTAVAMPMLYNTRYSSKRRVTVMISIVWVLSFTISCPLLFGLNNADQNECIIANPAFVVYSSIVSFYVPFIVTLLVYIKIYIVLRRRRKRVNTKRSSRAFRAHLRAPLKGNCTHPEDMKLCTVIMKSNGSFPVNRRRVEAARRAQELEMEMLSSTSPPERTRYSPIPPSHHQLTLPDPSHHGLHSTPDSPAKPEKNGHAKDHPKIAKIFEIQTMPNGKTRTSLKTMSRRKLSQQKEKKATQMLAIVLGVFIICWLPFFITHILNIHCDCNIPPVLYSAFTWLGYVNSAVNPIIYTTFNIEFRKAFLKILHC
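PathHunter D2 cells, attached overnight at 37 deg C, received compound in DMSO plus dopamine at EC20 (50 nM final) for 90 min at 37 deg C. Beta-arrestin recruitment was read as luminescence after 1 h with detection reagent at ambient temperature.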
TRPV1 potentiator: human TRPV1 potentiation | Q8NER1 | TRPV1-expressing cells, Fluo-8 calcium influx, capsaicin EC20 potentiation; host cell line not named in the record; control for the full effect not named in the record | potentiation, % at 8.33 µM | 320,000 compounds, 0.02% hits | AID 540277; active means potentiation above 80%; inconclusive means 30% to 80%; inactive means below 30%; also: 0% is about no effect
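Fluo-8 calcium influx in TRPV1-expressing cells, kinetic read (ex 480/em 520 nm). Compound added and read 3 min for agonist activity, followed by capsaicin at EC20 final and 2 min further read for enhancement.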
ClpP mod: qHTS Assay for Activators of ClpP; 340,000 compounds, 1.9% hits; purified B. subtilis ClpP, FRET peptide cleavage, 20 min; Potency, µM (highest dose often 57.5 µM), without a hit: at the highest dose activity change, negative = active; ATP-dependent Clp protease proteolytic subunit (Bacillus subtilis (strain 168)), P80244; active = well fitted falling curve with a large enough effect; inconclusive = small, poorly fitted or top-dose-only effect; inactive = no such curve, though single readings can be large or run the other way; also: potency is read from the fitted curve at half-maximal effect; the source files actives as falling curves though it sought activators and does not explain the sign; nearly all actives have a fitted effect of over 65% in size; many hits overshoot -100%
Target sequence (P80244 whole entry, looked up): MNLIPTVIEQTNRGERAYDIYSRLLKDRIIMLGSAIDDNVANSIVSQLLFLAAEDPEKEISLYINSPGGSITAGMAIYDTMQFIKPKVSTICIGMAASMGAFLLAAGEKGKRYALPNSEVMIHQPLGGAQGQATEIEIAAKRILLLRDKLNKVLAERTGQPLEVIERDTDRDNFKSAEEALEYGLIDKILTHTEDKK
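Buffer: 100 mM Tris/HCl pH8, 100 mM KCl, 0.05% low protease BSA, 2.5% glycerol, 0.01% Tween-20. ClpP 10 microg/mL final; 20 min RT; delta FRET normalized to ADEP and DMSO controls.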
gsp antag: antagonists of gsp mutant (McCune-Albright syndrome); gsp-mutant cells, cAMP HTRF, 30 min; control for the full effect not named in the record; Potency, µM (top dose mostly 76.9 µM), inactives show at the highest dose activity change, negative = inhibition, most hits filed as inhibitors; 340,000 compounds, 0.4% hits; AID 624288; active = falling curve of any shape with a large fitted effect; inconclusive = falling curve, mostly with a smaller effect; inactive = flat or rising curve; cell line not stated here;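 also: intracellular cAMP measured with PDE inhibitor Ro 20-1724 present during compound exposure; potency is read from the fitted curve at half-maximal effect; % is scaled to controls: 0 for no effect and ±100 for the full control effect; nearly all actives have a fitted effect of over 65% in size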
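Measurement of cellular cAMP by homogeneous time-resolved fluorescence following a 30 min compound exposure at 37C. The PDE inhibitor […] was present throughout; the assay buffer was DPBS with 0.05% BSA and 0.005% Tween 20.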
Menin-MLL FL inh: inhibitors of human menin-MLL interaction, wild-type MLL peptide; 290,000 tested, under 10 active; FP activity change, % at 61.4 µM; AID 1766; Fluorescence polarization, fluorescein-MLL peptide displacement from menin; inconclusive = falling polarisation curve, or a change in total fluorescence; inactive = total fluorescence flat and polarisation flat or rising; no compound was filed as active; the % refers to the polarisation; negative = inhibition;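 also: % of control where 0% means no effect; inhibitors lower the polarisation; unlabelled MLL peptide was the positive control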
Sfp PPTase inh: blocks B. subtilis Sfp PPTase activity; Potency, µM, for the others: max response, negative = inhibition, hits mostly inhibitors; 310,000 compounds, 3.5% hits; AID 1490; Q9F4F7; Biochemical Sfp PPTase activity, qHTS; active = well fitted inhibition curve with a large enough effect; inconclusive = small, poorly fitted or top-dose-only effect, or another doubt; inactive = no such curve, though single readings can be large or run the other way;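 also: the enzyme is Sfp with the accession as filed and its product quenches rhodamine fluorescence; potency is read from the fitted curve at half-maximal effect; 0% = enzyme reaction without inhibitor and -100% = no enzyme wells; top concentration of the series not given in the record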
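Sfp 15 nM + cpd, 15 min RT; start w/ rhodamine-CoA 5 uM, BHQ-2-YbbR 12.5 uM (final); 50 mM Hepes pH 7.6, 10 mM MgCl2, 0.01% NP-40, 0.01% BSA; read 525/598 nm at 0 and 30 min.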
gsp ag: gsp mutant agonism; gsp mutant cells, cAMP HTRF, 30 min; control for the full effect not named in the record; Potency, µM (doses to about 76.9 µM), for the others: top-dose activation (cAMP increase), most hits filed as activators; 340,000 compounds, 0.13% hits; AID 624287; active = well fitted activation curve with a large enough effect; inconclusive = small, poorly fitted or top-dose-only effect, or another doubt; inactive = no such curve, though single readings can be large or run the other way; cell line not stated here;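 also: phosphodiesterase inhibitor Ro 20-1724 added with compounds to block cAMP breakdown; potency is read from the fitted curve at half-maximal effect; nearly all actives have a fitted effect of over 60% in size; about a fifth of the inactives were tested at one dose only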
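Cells in DMEM/10% FBS with G418 were pretreated with compounds in DMSO plus […] (300 uM stock) for 30 min at 37C. cAMP was measured by HTRF (cAMP-d2 plus anti-cAMP antibody-K) after 30 min at room temperature.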
An asterisk follows results filed as active; ? = inconclusive; . = not tested or not shown; [ ] = dose if it differs, or a comment.

canonical_smiles,D2 potentiator,TRPV1 potentiator,ClpP mod,gsp antag,Menin-MLL FL inh,Sfp PPTase inh,gsp ag
OC(COc1ccc2ccccc2c1)Cn1cncn1 (stereo not given),15,14,-3.6%,4%,2.7,-4%,-47%[inhibitor]
Cc1ccccc1C(=O)Nc1c2c(nc3ccccc13)CCCC2,11,-11,0.2%,-4%,1.4,15%,-54%[inhibitor]
COc1ccc(S(=O)(=O)NNC(N)=S)cc1,-1,-1,.,9%,-0.6,28µM*,15%[15.4 µM]
CCCCn1c(N)c(N(CCOC)C(=O)c2cc(S(=O)(=O)N3CCOCC3)ccc2Cl)c(=O)[nH]c1=O,1,.,-4.5%,3%,.,.,18%
COc1ccc(NC(=O)NC(C(F)(F)F)C(F)(F)F)cc1,-5,5,-3.3%,-5%,2.4,9%,-11%
CCc1c(-c2ccccc2)nc(N)c(C#N)c1-c1cccs1,-15,-5,?,-9%,-3.8,21%,17%
Cc1nnsc1S(=O)(=O)Cc1ccccc1C(F)(F)F,-2,-5,2.5%,-14%,-4.6,20%,-27%
CCCCn1ccnc1C(=O)c1cccc(S(=O)(=O)N2CC(C)CC(C)C2)c1 (stereo not given),-7,14,-1.3%,-14%,1.0,-1%,-16%
Cc1ccc(OC(=O)c2ccc(Cl)c([N+](=O)[O-])c2)cn1,-8,3,22%,?,1.2,-1%,5%
O=C(CN1CCc2cc3c(cc2C1)OCCCO3)Nc1ccc(S(=O)(=O)N2CCCC2)cc1,-13,-11,0.3%,-29%,.,13%,-4%

Overlap with the part before: 3 entries, then new ones.
canonical_smiles,D2 potentiator,TRPV1 potentiator,ClpP mod,gsp antag,Menin-MLL FL inh,Sfp PPTase inh,gsp ag
CCCCn1ccnc1C(=O)c1cccc(S(=O)(=O)N2CC(C)CC(C)C2)c1 (stereo not given),-7,14,-1.3%,-14%,1.0,-1%,-16%
Cc1ccc(OC(=O)c2ccc(Cl)c([N+](=O)[O-])c2)cn1,-8,3,22%,?,1.2,-1%,5%
O=C(CN1CCc2cc3c(cc2C1)OCCCO3)Nc1ccc(S(=O)(=O)N2CCCC2)cc1,-13,-11,0.3%,-29%,.,13%,-4%
O=C(COc1ccccc1)Nc1nc(-c2cccs2)cs1,-15,-4,-20%,-7%,2.1,6%,16%
COc1ccc2oc(C(=O)OCC(=O)Nc3cccc(S(=O)(=O)N4CCOCC4)c3)c(C)c2c1,-1,7,.,-13%,.,.,71%[15.4 µM]
CCOC(=O)c1c[nH]c2ccc([N+](=O)[O-])cc12,2,.,.,-4%,.,.,-1%
Cc1nc(-c2ccc(S(=O)(=O)Nc3ccc(Br)cc3Cl)s2)cs1,-13,1,-4.7%,-23%,5.8,-5%,0%[15.4 µM]
Cc1csc(NC(=O)C2CCCN2C(=O)Oc2ccccc2)n1 (stereo not given),2,-6,1.4%,8%,2.8,21%,-21%
Cc1nn2cnc3sc4c(c3c2nc1=O)CCCC4,-2,-3,0.1%,3%,3.3,-18%,?
Cc1ccc(C2SCC(C(=O)O)N2C(=O)c2ccc(F)cc2)cc1 (stereo not given),-6,-1,-8.1%,15%,5.5,11%,10%
O=C(Nc1nnc(SCCC2OCCO2)s1)C1CC(=O)N(c2ccccc2)C1 (stereo not given),-14,-6,2.2%,-24%,.,-17%,?
O=C(c1ccco1)N1CCN(Cc2nc(Cc3ccccc3)no2)CC1,11,-1,.,-4%,4.0,-1%,3%[15.4 µM]
O=C(NCCCCNC(=O)C1CCCC1)C1CCCC1,-5,1,0.9%,-3%,2.2,16%,-58%[inhibitor]
FC(F)(F)c1nc2ccccc2nc1N/N=C/c1ccc(Cl)cc1,-29,10,1.7%,-7%,1.3,0%,12%
O=C1CC(C(=O)N(c2ccccc2)C(C(=O)NC2CCCC2)c2ccncc2)CS1 (stereo not given),-14,?,-2.5%,4%,0.1,-11%,11%
Cn1c(COc2ccc(F)cc2)nc2ccccc21,-1,0,.,6%,-1.3,4%,?
Nc1nc(Br)c2c(F)cccc2c1-c1ccccc1,-27,.,0.9%,8%,3.2,-11%,-38%
CN(NS(=O)(=O)c1ccc(Cl)cc1)c1cnn(C)c(=O)c1Cl,-8,6,0.0%,0%,-0.5,20%,-21%
CCN(CC)CCN(Cc1cc2cc(C)ccc2[nH]c1=O)C(=S)Nc1ccccc1,-12,-6,.,6%,-0.2,10%,?
O=C(NCc1cccnc1)C(=O)NCC1OCCCN1S(=O)(=O)c1cc(F)ccc1F (stereo not given),-5,.,1.6%,.,.,.,22%
COC(=O)c1ccccc1NC(=O)Nc1ccc2c(c1)OCO2,1,3,1.2%,3%,1.3,15%,-1%
COc1cc(C)c(C(N)=O)c(OC)n1,-12,6,0.0%,5%,5.1,-3%,?
C[C@H](CO)N1C[C@H](C)[C@@H](CN(C)S(=O)(=O)c2cccs2)Oc2ccc(NS(=O)(=O)c3ccccc3)cc2C1=O,-4,.,1.9%,?,.,.,.
CCc1ccc(N(CC(=O)NCc2cccnc2)S(=O)(=O)c2ccccc2)cc1,-6,-3,-0.7%,2%,.,16%,-17%
O=C1C(C=NCc2ccccn2)=C(O)c2ccccc21,-4,-8,-0.7%,6%,-0.2,-11%,2%
O=C(COC(=O)c1cccc(S(=O)(=O)N2CCCC2)c1)Nc1ccc(Cl)cc1,-15,.,-1.3%,.,.,.,14%
Cc1nnc(SCCCn2c(N3CCCCC3)nc3c2c(=O)[nH]c(=O)n3C)s1,-1,-11,-0.3%,-9%,-2.1,14%,-2%
O=C(Nc1ccccc1)C1CCN(C(=O)c2ccccc2)CC1,-20,0,0.6%,18%,4.7,13%,7%
Cc1onc(-c2ccccc2Cl)c1C(=O)Nc1ccc(-c2nnc3n2CCCCC3)cc1,-3,4,-2.5%,-12%,1.3,1%,?
O=C(Nc1ccccc1Cc1ccccc1)c1ccccc1NS(=O)(=O)c1ccc(Cl)s1,17,14,-9.6%,-39%,.,15%,-3%
COCCCN1C(=O)C(CC(=O)NCC2CCCCC2)CC(C(=O)N(C)C)=C1C (stereo not given),1,.,1.2%,.,.,.,-19%
CC(C)(C)NC(=O)CSc1nc(O)cc(=O)n1-c1ccccc1,11,1,0.1%,-24%,5.5,?,-5%
Cc1ccccc1NC(=O)COC(=O)c1cc(S(=O)(=O)N2CCOCC2)ccc1C,0,-8,0.0%,11%,.,.,-24%
NC(=O)CC(NC(=O)Cc1ccc(Br)cc1)c1ccc(NCCc2ccc(Cl)cc2)c([N+](=O)[O-])c1 (stereo not given),-11,5,0.4%,6%,1.7,?,.
O=C(Oc1coc(CSc2ncccn2)cc1=O)c1ccc(Br)o1,-4,-3,-1.0%,4%,4.9,-12%,2%[15.4 µM]
CCCCS(=O)(=O)Nc1ccc2ncn(C)c(=O)c2c1,9,-4,32µM*,2%,-4.5,8%,4%
O=C(NC1CCN(C(=O)NCc2ccccc2)CC1)c1cccc(F)c1,-3,-33,.,5%,-2.9,12%,4%[15.4 µM]
CCOc1ccc(NC(=O)c2c(OC)cccc2OC)cc1,-4,12,-0.5%,6%,-0.6,9%,23%
CCO[C@H]1OC(C(=O)NC2CC2)=C[C@@H](C2CC2)[C@@H]1CCCO,-1,27,0.6%,4%,-0.2,9%,.
CC(NC(=O)CSCc1ccc(Br)cc1)c1ccccc1 (stereo not given),-1,-2,.,-7%,-4.1,12%,-13%
CCN(CC)CCNC(=O)CCc1nn(C)c(=O)c2ccccc12,-2,6,-8.8%,4%,0.4,14%,-8%
CN(C)C(CNc1nnnn1-c1ccccc1)c1ccco1 (stereo not given),-10,-11,-3.8%,-3%,2.9,3%,-52%[inhibitor]
Nc1n[nH]c(-c2ccccc2)c1-c1ccccc1,2,25,-17%,-1%,0.2,8%,?

Among those listed so far, these have a nitro group on carbon:
canonical_smiles,D2 potentiator,TRPV1 potentiator,ClpP mod,gsp antag,Menin-MLL FL inh,Sfp PPTase inh,gsp ag
Cc1ccc(OC(=O)c2ccc(Cl)c([N+](=O)[O-])c2)cn1,-8,3,22%,?,1.2,-1%,5%
CCOC(=O)c1c[nH]c2ccc([N+](=O)[O-])cc12,2,.,.,-4%,.,.,-1%
NC(=O)CC(NC(=O)Cc1ccc(Br)cc1)c1ccc(NCCc2ccc(Cl)cc2)c([N+](=O)[O-])c1 (stereo not given),-11,5,0.4%,6%,1.7,?,.

Other structures
canonical_smiles,D2 potentiator,TRPV1 potentiator,ClpP mod,gsp antag,Menin-MLL FL inh,Sfp PPTase inh,gsp ag
Cn1cnnc1SCC(=O)NCCc1ccc(Cl)cc1Cl,-2,-7,0.3%,10%,-3.9,0%,-18%
O=C1CC(N2CCN(c3ccc(F)cc3)CC2)C(=O)N1c1ccc2c(c1)OCO2 (stereo not given),-7,1,-0.8%,-21%,2.6,11%,11%
CCOc1ccc(/C=N/Nc2nncc(-c3ccccc3)n2)cc1OC,-4,4,2.0%,1%,4.4,-21%,7%
Cc1ccc(C)c(N(CC(=O)NC2CCCCC2)C(=O)CCC(=O)Nc2ccccn2)c1,.,6,.,.,3.2,-4%,.
CCOC(=O)C(C(=O)OCC)N(C#N)c1nc(C)cc(C)n1,-13,-8,1.5%,9%,3.8,0%,30%
COc1cccc(NC(=O)CN(C)C(=O)c2cc(CN3C(=O)c4ccccc4C3=O)ccc2OC)c1,7,.,0.0%,-9%,.,.,-3%
CCOC(=O)N/N=C(\C)c1ccc(Oc2ncccn2)cc1,4,-6,0.7%,-13%,6.4,19%,0%
CCN(CC)S(=O)(=O)c1ccc(Cl)c(C(=O)Oc2cccnc2)c1,-10,-2,2.3%,-3%,4.6,-4%,?
C=CCSC1=C(C#N)C(c2ccccc2C)CC(=O)N1 (stereo not given),-6,-12,28µM*,-4%,-1.0,?,19%
Cc1ccc(C)c(NC(=O)COC(=O)Cc2ccsc2)c1,-7,1,.,.,2.1,1%,-1%[15.4 µM]

From PubChem

Compounds were not picked by outcome; 5.1% or so of the library scored in one or more.
